Screens from PubChem.
PABP FP inh – PABP poly(A) RNA binding inhibitors, primary screen, biochemical, fluorescence polarization, uHTS; Polyadenylate-binding protein 1 (Homo sapiens), P11940; AID 2014, 2009; inhibition, % at 35 µM; 290,000 compounds, 1% hits;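 active = 50% or more with normal probe brightness, or confirmed in later tests; inconclusive = above 50% with abnormal brightness, or retests that disagree; inactive = below 50% or failed in later tests; about a fifth of its hits are not listed in these tables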;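 also: calls also rest on retests at 20 µM and on dose response follow-up; controls were probe without protein and protein plus probe with vehicle; some compounds called inactive have numbers as strong as hits; many hits fall short of the cut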
CSC inhib – cancer stem cell viability inhibitors, primary screen, luminescence; cancer stem cell-like cells viability; 300,000 compounds, 1.1% hits; AID 2717, 2010; inhibition, % at 7.5 µM;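 active = mean at 75% or more and at least half the replicates too; inconclusive = mean and replicates disagree; tested in HMLE shEcad cells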;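 also: 0% = median of negative and 100% = median of positive control wells; the first replicate is given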
Yeast UUG start – modulators of yeast start codon fidelity, primary screen, whole organism, S. cerevisiae, single point, plate reader; S. cerevisiae UUG-firefly luciferase reporter, luminescence/redox ratio; 350,000 compounds, 0.13% hits; activity score, % at 18.7 µM;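 active = replicate mean at a twofold rise or more, about +100% in these data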;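 also: firefly luciferase made from a UUG start codon reports start codon fidelity; reporter light over untreated wells divided by growth signal over untreated wells; some hits fall short of that in this replicate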
Env fusion inh – inhibitors of HIV-1 Env-driven cell-cell fusion, primary screen, HeLa-JRFL effector, CEM21 target cells, luciferase; inhibition, % at 12.3 µM; 360,000 compounds, 1.1% hits; AID 651610, 2012;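 active = mean replicate inhibition score of at least 50 and every replicate individually at or above 50; inconclusive = only one of the two criteria met; inactive = mean below 50 and not all replicates reaching 50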;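 also: 0% = plate neutral controls and 100% = maraviroc near 300 nM; one replicate is shown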
eIF4H FP inh – human eIF4H binding inhibitors, primary screen, translation initiation inhibitor project, biochemical, uHTS, fluorescence polarization; inhibition, % at 35 µM; 290,000 compounds, 0.94% hits; eIF4H fluorescence polarization binding assay; AID 2012, 2009;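 active = 50% or more with normal probe brightness, or confirmed in later tests; inconclusive = above 50% with abnormal brightness, or retests that disagree; inactive = below 50% or failed in later tests; about a fifth of its hits are not listed in these tables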;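 also: calls also rest on retests at 20 µM and on dose response follow-up; 0% = protein and probe with vehicle and 100% = probe without protein; strong numbers were not always called active; many hits fall short of the cut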
Rce1 inhib – yeast Rce1p protease inhibitors, primary screen, biochemical, fluorescence, cell-free homogeneous. CAAX prenyl protease 2 (Saccharomyces cerevisiae (strain ATCC 204508 / S288c)), Q03530. 290,000 compounds, 0.27% hits. calls only. yeast membranes, quenched prenylated peptide cleavage fluorescence. AID 2563, 2010;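 active = fall in fluorescence gain of 50% or more versus controls, with final raw signal at or below 3038400; inconclusive = same 50% fall but final raw signal above 3038400; inactive = fall in fluorescence gain under 50%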;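 also: plate controls were neutral control wells for no effect and wells lacking membranes for full effect; tested at 10 µM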
Target sequence (Q03530 whole entry, looked up): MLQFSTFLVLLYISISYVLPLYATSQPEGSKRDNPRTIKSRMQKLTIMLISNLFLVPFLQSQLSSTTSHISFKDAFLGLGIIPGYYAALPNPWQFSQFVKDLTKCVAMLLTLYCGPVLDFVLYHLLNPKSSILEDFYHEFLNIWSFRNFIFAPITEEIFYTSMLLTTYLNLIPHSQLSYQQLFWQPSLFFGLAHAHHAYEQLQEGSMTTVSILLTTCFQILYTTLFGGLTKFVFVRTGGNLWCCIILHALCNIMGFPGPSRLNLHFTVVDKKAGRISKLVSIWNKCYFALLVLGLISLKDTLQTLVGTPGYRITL
MT1-MMP act inh – blockers of MT1-MMP proenzyme processing, primary screen, HT1080 RFP-PRO-GFP cells, GFP/RFP fluorescence | GFP/RFP ratio fluorescence, overnight; percent of plate control window, DMSO zero | GFP/RFP ratio change, % at 20 µM | 360,000 compounds, 0.061% hits;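 active = GFP/RFP ratio change of at least 30% with cell ATP level not reduced by more than half and red fluorescence within 50% of control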; also: strong numbers were not always called active
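Material: RFP-PRO-GFP reporter HT1080 cells. Dosing: single-point 20 µM compound, 1% DMSO. Controls: DMSO and RFP-L50D-GFP cell wells. Timing: cells overnight before dosing, compound overnight, 37 °C, 5% CO2. Measure: GFP/RFP fluorescence ratio.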
MT1-MMP act inh RFP – also measured in MT1-MMP act inh; calls as there; RFP signal change, %; measured here: RFP expression control read;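 0 = vehicle wells; hits needed this value within 50% of zero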
Starred values were filed as active, the others as inactive; i = inactive; ? = inconclusive; . = no result given.

Values run as follows: PABP FP inh, CSC inhib, Yeast UUG start, Env fusion inh, eIF4H FP inh, Rce1 inhib, MT1-MMP act inh, MT1-MMP act inh RFP
COCCN(C(=O)CN1CCN(S(=O)(=O)c2ccc(F)cc2)CC1)c1c(N)n(Cc2ccccc2)c(=O)[nH]c1=O
 : 3, -1, ., 2, -10, i, -3, 3
Cc1ccc(N2CC(C(=O)Nc3cccnc3)CC2=O)cc1C (stereo unspecified)
 : -2, -3, -20, 3, 4, i, 0, 0
Cc1noc(NS(=O)(=O)c2ccc(NC(=O)CCC3CCCC3)cc2)c1C
 : 6, -21, -13, ., 2, i, 2, 2
C(=C\c1ccccc1)/CN1CCN(C(c2cccs2)c2nnnn2C2CCCC2)CC1 (stereo unspecified)
 : ., ., -1, -19, ., ., 5, 1
Nc1nonc1-c1nc2ccccc2n1Cc1ccc(F)cc1Cl
 : -10, 5, -19, 51, 6, i, 8, 9
COc1ccccc1CNC(=O)CN(C)S(=O)(=O)c1cccc2cccnc12
 : 5, -13, -17, -6, 0, i, 1, 2
CC(C)S(=O)(=O)N1CCCC(c2cc(C(=O)Nc3ccc(F)c(Cl)c3)no2)C1 (stereo unspecified)
 : ., ., -6, -16, ., ., -4, -14
Nc1c(Cl)ncnc1N1CCCC1
 : 3, -11, ., 1, 5, i, 3, 5
COc1cccc(CCNC(=O)CCc2nnc(Cc3cc(OC)ccc3OC)o2)c1
 : 5, -11, -2, 2, 3, i, 1, 1
CCCCP(=O)(CCCC)c1ccccc1C(=O)O
 : -8, 3, -9, ., 4, i, ., .
COCCCNC(=O)CSc1c2c(nc3ccc(Cl)cc13)CCCC2
 : -4, 0, ., 1, 5, i, -1, -6
Nc1nc(SC23CC4CC(CC(C4)C2)C3)ns1
 : -2, -7, ., -7, -4, i, -6, 1
Cc1noc(C)c1COc1cccc(C(=O)Nc2ccc(Br)cc2F)c1
 : ., 43, -17, ., ., ., 0, -12
CC(C)(C)c1ccc(/C=C/C(=O)NC2=NCCS2)cc1
 : -2, 18, -21, ., -1, i, 7, -13
O=C(c1ccc(Cl)cc1[N+](=O)[O-])N1CCN(c2ccccn2)CC1
 : 0, 0, ., -8, -5, i, 0, 0
COc1ccc(NC(=O)c2nc[nH]c2C(=O)N2CCN(c3ccccc3)CC2)cc1
 : 0, 14, -14, -11, 13, i, -1, 2
Cc1nc2n(COCCO)cnn2c(=O)c1Br
 : -9, 4, ., 4, -6, i, 2, 8
CCC(=O)c1cc2c(cc1NC(=O)c1ccc(C)cc1)OCCO2
 : -4, -20, ., -12, -14, i, 10, -1
CCc1ccc(N2CC(C(=O)OCC(=O)Nc3ccc(C(C)=O)cc3)CC2=O)cc1 (stereo unspecified)
 : ., -14, ., 3, ., ., -1, 1
NNC(=O)c1ccc(COc2ccc3c(c2)CCC3)cc1
 : 7, 26, ., 6, -4, i, 3, 8
CC(=O)[C@H]1[C@H]([C@H](O)[C@H](O)CO)O[C@](O)(C(=O)O)C[C@@H]1O
 : ., -4, -16, ., ., ., 1, 0
O=C(O)/C=C/C(=O)Nc1ccccc1C(=O)OCC(=O)c1ccc2c(c1)OCCO2
 : 7, 6, ., -8, 2, i, 0, -1
CCCCSCc1nc2ccccn2c1Br
 : 11, -7, ., -5, 20, i, -2, 8
Cc1ccc(CN2C(=O)C(C)Oc3ccc(C)cc32)cc1 (stereo unspecified)
 : ., ., -8, -7, ., ., -4, 1
CC(C)NC(=O)NC(=O)COC(=O)c1cccc(OC(F)F)c1
 : 7, -2, ., 3, 3, i, -3, -2
O=C(Cn1nnc(-c2ccc(Cl)cc2)n1)NCCC1=CCCCC1
 : -5, -15, 2, ., -5, i, -2, 0
Cc1nn(Cc2ccccc2)c(C)c1NC(=O)CCCn1nc(C)c([N+](=O)[O-])c1C
 : -5, -13, ., 16, -4, i, -1, -1
OCCC1CN(Cc2nc(-c3ccccc3)cs2)CCN1C1CCCC1 (stereo unspecified)
 : 7, 56, ., -8, 3, i, -1, 4
COCCN(C(=O)CCc1ccccc1OC)c1nnc(-c2cccnc2)s1
 : 0, -5, ., 11, -5, i, 3, -3
Cn1c(=O)c2c(nc(CN3CCOCC3)n2CC(O)CO)n(C)c1=O (stereo unspecified)
 : -4, -7, -23, -13, 0, ., 1, 3
CCCN(CC1CC1)C(=O)COC(=O)c1oc2ccc(OCC)cc2c1C
 : ., -15, -2, 11, ., ., 3, -1
Cc1ccc2[nH]c3c(=O)n(CC(=O)N4CCN(C)CC4)ncc3c2c1
 : 6, -11, -8, -52, -4, i, 2, 5
Cc1ccc(OCCCCCCN2CCNCC2)cc1
 : ., 58, -14, -11, ., i, 5, -6
COc1ccc(NC(=O)CN2CCC(NC(=O)c3ccco3)CC2)c([N+](=O)[O-])c1
 : -12, -2, -10, 0, -4, i, -2, -1
CC(C)c1nc(NCCO)c(C#N)c2c1CCCC2
 : 4, -8, 10, 34, 0, i, -3, -13
Cc1cc(-c2csc(N)n2)c(C)n1Cc1ccccc1
 : 2, 0, ., -16, ?, ., 4, 10
O=C(Nc1ccn(Cc2ccccc2F)n1)c1ccc(COc2ccccc2Cl)cc1
 : -8, 139*, -9, 60*, 4, i, -14, -27
COc1ccc(/C=C/C(=O)ONC2=NCCCCC2)cc1OC
 : 16, -9, ., 5, -11, i, 2, 2
Cc1ccc(N/N=C(\Cc2nc3ccccc3[nH]2)c2ccccc2)cc1
 : -1, 92*, ., ., 13, ., -18, -14
COc1ccc(OC)c(-n2c(C)ccc2-c2ccc(S(C)(=O)=O)cc2)c1
 : -7, -8, 8, ., -1, i, 2, 0
Cc1ccc(CCNC(=O)c2nc(CS(=O)(=O)c3ccc(Cl)cc3)no2)cc1
 : -5, 19, -11, 8, -6, i, 1, -1
O=S(=O)(Nc1nnc(C(F)(F)F)s1)c1ccc(Cl)cc1
 : 5, 6, -13, -12, -5, i, 0, 1
CC1=C(C)C(=O)N(CCC(=O)O)C1=O
 : 3, -13, 13, -101, 6, i, 1, 1
CCOC(=O)C1=C(C)N=C2SCCC(=O)N2[C@@H]1c1cccs1
 : -7, 21, -19, 8, 1, i, 2, 1
COc1cc(C(=O)NCCCNc2nc3cc(C)c(C)cc3cc2C#N)cc(OC)c1OC
 : -7, 5, ., 13, 6, i, -2, 2
CCOC(=O)c1cnc2c(C)c(-c3ccccc3)[nH]n2c1=O
 : 1, -7, -12, ., -6, i, 1, 2
CCOC(=O)CN(C(=O)CSc1nnc2c(n1)[nH]c1ccc(OC)cc12)c1ccc(F)cc1
 : 12, -12, -10, -47, -7, i, 0, -8
CC(C)c1ccc(CCNC(=O)c2cccc(S(=O)(=O)N3CCN(C)CC3)c2)cc1
 : -11, ., -14, ., -16, i, 6, -4
CS(=O)(=O)c1ccc2nc(NC(=O)CC3CCCC3)sc2c1
 : ?, 7, -11, ., -1, i, -3, -1
COc1ccc(S(=O)(=O)NC(C(C)C)C(C)C)cc1OC
 : 1, -14, -12, ., 0, i, 1, 1
CC(C)NC(=S)N1CCC(Cc2ccccc2)CC1
 : 3, 5, -24, -8, -1, i, 2, -5
Cc1nc2cc(-c3cccs3)[nH]n2c(=O)c1C
 : ., 5, -15, ., ., i, -20, 5
CN(C)c1nc(Nc2ccc(Cl)cc2)nc(OCC#N)n1
 : 17, 8, -15, ., 7, i, -5, -12
CC(C)(C)OC(=O)N1CCN(C(=O)c2[nH]cnc2C(=O)Nc2ccc(Cl)cc2)CC1
 : ., ., -13, -7, ., ., 5, 0
Cc1noc(C)c1NC(=O)Nc1ccc2c(c1)C(=O)N([C@H](C)CO)C[C@H](C)[C@@H](CN(C)S(=O)(=O)c1ccc(F)cc1)O2
 : ., -4, 20, 27, ., ., 3, 3
COc1ccc2c(c1)Cc1cc(NC(=O)c3ccccc3-c3ccccc3C(=O)O)ccc1-2
 : ., ., -26, 10, ., ., 0, 4
CCC(=O)Nc1ccc(Oc2ccc3c(c2)C(=O)NC3=O)cc1
 : 4, -2, -4, ., -8, i, 0, -2
Cc1cc(C)c(C(=O)COC(=O)Cn2c(C)csc2=O)cc1C
 : -14, ., 10, -12, 2, i, 1, 5
OC[C@H]1O[C@@H](n2cnc3c(NC4CCCC4)nc(Cl)nc32)[C@H](O)[C@@H]1O
 : ., 6, -12, -2, ., ., 0, 0
CCOC(=O)Cn1c2c(c(=N)c3ccccc31)CCC2
 : 12, 25, -8, ., 6, i, 4, -2

Other structures follow.
Values run as follows: PABP FP inh, CSC inhib, Yeast UUG start, Env fusion inh, eIF4H FP inh, Rce1 inhib, MT1-MMP act inh, MT1-MMP act inh RFP
CCN(CC)S(=O)(=O)c1ccc(NC(=O)COC(=O)CN2C(=O)c3ccccc3C2=O)cc1
 : 1, 1, -2, 1, 2, i, 1, 2
Cc1cc(C2C(C#N)=C(N)Oc3n[nH]c(C)c32)c(C)s1 (stereo unspecified)
 : 10, -4, -29, ., -4, i, 1, 1
COc1ccccc1N(C)S(=O)(=O)c1ccc(C)c(C(=O)Nc2nccs2)c1
 : ., -8, ., 17, ., i, -7, -8
Cc1cc(C)cc(C(=O)NCC(=O)OCC(=O)c2cc(C)n(CC(F)(F)F)c2C)c1
 : -11, -11, -14, 0, -4, ., -4, -4
CC1=CC(C)(C)N(C(=O)CNC2CCCCC2)c2cc(C)ccc21
 : 8, -15, -2, 0, 10, i, -4, 2
Nc1c(Cl)ncnc1NCc1cccnc1
 : 3, -8, -8, -9, -6, i, 4, -3
O=C(NC(=S)NCCCN1CCOCC1)c1ccc([N+](=O)[O-])cc1
 : -6, -12, ., -44, 7, ., 4, 6
Cc1ccc(-n2c(-c3ccco3)n[nH]c2=S)cc1
 : 0, -2, ., -10, -6, i, 1, 2
O=C1CC(N2CCN(c3ccccc3)CC2)C(=O)N1Cc1ccc(Cl)cc1 (stereo unspecified)
 : -6, 0, -4, -9, -6, i, 0, -3
COc1cc2c(cc1OC)C(c1cc3cc(C)ccc3[nH]c1=O)N(C(=O)c1ccco1)CC2 (stereo unspecified)
 : 1, ., -1, -23, -5, i, -8, -3
CCc1nc2ccc(C(=O)N3CCCC(C(N)=O)C3)cn2c1N(CCC(C)C)CCN(C)C (stereo unspecified)
 : ., ., -18, -5, ., ., -1, 4
COC(=O)c1cc(NC(=O)C2CC=CCC2C(=O)O)cc(C(=O)OC)c1 (stereo unspecified)
 : -4, 0, -6, -81, 0, i, 2, 5
CCOC(=O)c1nc(N2CCN(C(=O)OCC)CC2)c2c3c(sc2n1)CCCC3
 : -5, 6, 10, ., 13, i, 3, -1
COc1ccc(CCNC(=O)C2CCCN2C(=O)Nc2ccc(C)cc2)cc1OC (stereo unspecified)
 : 6, 18, -14, -6, 4, i, 0, 4
c1ccc2c(c1)[nH]c1c(N3CCOCC3)ncnc12
 : -3, -9, -12, ., 2, i, 8, -7
COC(=O)c1c(C)oc(C)c1S(=O)(=O)NCC1CC1
 : 6, -5, -7, 6, -2, i, 3, 4
O=C1CC(c2ccco2)Cc2nc(Nc3nc(-c4ccccc4)c4ccccc4n3)ncc21 (stereo unspecified)
 : 9, -9, ., ., 11, i, 1, 0
Cc1c(O)ccc2c(=O)c(Oc3ccccc3)coc12
 : 9, 6, -12, -9, 2, i, 3, 1
CC(C)CC(OC(=O)c1ccco1)C(=O)NC1CCCCC1 (stereo unspecified)
 : -4, -12, -11, 20, 0, i, 1, 5
